# Screens deposited in PubChem BioAssay by Center for Chemical Genomics, University of Michigan.
# TAR Tat displ: TAR RNA-Tat peptide displacers, HIV-1, primary screen, biochemical, FRET, FAM/TAMRA-labeled Tat. HIV-1 TAR RNA, Tat peptide displacement FRET; active compounds read high. z-score (test concentration not listed). 0.6% of 100,000 active. AID 1259389, 2018;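 note: score is relative to mean and SD of negative controls; some compounds called inactive have numbers as strong as hits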
# CDC25B CDK2 inh: primary biochemical HTRF screen for blockers of M-phase inducer phosphatase 2 binding to CDK2/cyclin A; P30305+P24941; HTRF CDC25B-CDK2/CyclinA binding, anti-His/anti-Flag; active compounds read high; z-score (concentration not given with the values); 0.72% of 94,000 active;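 note: score is relative to mean and SD of negative controls; strong numbers were not always called active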
# * = called active by the depositor; · = not tested or not shown; & = joins results of further samples.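 Rule for the calls: active = z-score from 3 up in half or more of its runs; inactive = the rest.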 An unsorted share of the library. Share with any hit: about 0.97%.
SMILES,TAR Tat displ,CDC25B CDK2 inh
Cc1cccn2c(=O)c3cc(C(=O)N4CCN(c5cccc(Cl)c5)CC4)sc3nc12,·,3
O=C(Nc1cnn(Cc2ccc(F)cc2)c1)c1cnn2c(C(F)F)cc(-c3ccccc3)nc12,1.1,0.47
COc1ccc(OC)c(CN2CCc3nc(N4CCN(c5ccccc5OC)CC4)ncc3C2)c1,-0.1,·
Cc1cc(C)nc(-n2ncc3c2CCCC3=O)n1,-0.41,-1
Fc1ccccc1Cn1c(CN2CCOCC2)nc2ccccc21,0.86,-0.94
Nc1ccc(Cl)c(-c2nc3ccccc3[nH]2)c1,-2,-2.4
Fc1ccc(Cn2cccc2C2=NC(c3ccccc3)CO2)cc1 (stereo not drawn),1.4,·
N#C/C(=C\c1ccsc1)S(=O)(=O)c1ccc(C(F)(F)F)cn1,·,0.2
CCOC(=O)c1cnc(SC(C)C(=O)Nc2c(C)cc(C)cc2C)nc1N (stereo not drawn),2,·
C1CCC2OCCOCCOC3CCCCC3OCCOCCOC2C1 (stereo not drawn),·,-0.56
CCc1cc2c(=O)c(-c3nc4ccccc4[nH]3)coc2c(CN2CCOCC2)c1O,·,-1.4
CCn1c(C(O)c2ccc(C(C)C)cc2)nc2ccccc21 (stereo not drawn),-0.05,-1.4
N#Cc1c(N)nc2c(c1-c1ccccc1Cl)CCCCC2,·,1
COc1ccc(-n2c(SCC(=O)N3CCN(c4ccccc4)CC3)nc3c(c2=O)SCC3)cc1,1.5,-0.43
CCCCCCSc1nnc2c(n1)OC(C)Nc1ccccc1-2 (stereo not drawn),-1,1.9
Cc1nnc(N2C(=O)C(O)=C(C(=O)c3ccco3)C2c2ccc(F)cc2)s1 (stereo not drawn),-4.3,-0.02
CCN1CCN(CCN2C(=O)c3cc4ccccc4n3CC2(C)C(=O)NC2CCCC2)CC1 (stereo not drawn),2.2,·
O=C(NCC1CCCO1)c1noc2c1CCc1sccc1-2 (stereo not drawn),1,·
Cn1c(=O)c2c(ncn2CCN2CCOCC2)n(C)c1=O,·,-2.1
O=C(CCSc1nc2ccccc2o1)N1CCc2cc([N+](=O)[O-])ccc21,·,-1.4

# Next part (two carried over from the part before).
SMILES,TAR Tat displ,CDC25B CDK2 inh
Cn1c(=O)c2c(ncn2CCN2CCOCC2)n(C)c1=O,·,-2.1
O=C(CCSc1nc2ccccc2o1)N1CCc2cc([N+](=O)[O-])ccc21,·,-1.4
Cc1cc(S(=O)(=O)NCCc2csc3nc(-c4cccc(F)c4)nn23)ccc1F,0.39,·
Cc1cc(C)n(-c2nc(N3CCOCC3)nc(N3CCOCC3)n2)n1,·,-0.57
O=S(=O)(NCCCN1CCOCC1)c1ccc(N2CCCCS2(=O)=O)cc1,1.3,·
Cc1nnc(SCC(=O)Nc2ccc(Br)cc2F)c2cc3occc3n12,0.45,·
O=C(O)CCOc1ccc(F)cc1F,·,-1.9
CCC(Sc1nnc(CSc2ncccn2)n1-c1ccc(F)cc1)C(=O)OC (stereo not drawn),0.08,-0.11
c1ccc(-c2nnc(COc3cccc4ccccc34)o2)cc1,1.8,2.5
CC1Cc2cc(S(=O)(=O)CCC(=O)NCc3cccs3)ccc2N1C(=O)C1CC1 (stereo not drawn),0.47,·
Cc1cc(N2CCN(Cc3ccccc3)CC2)n2nc(Cc3cccc(F)c3)nc2n1,0.96,·
C=CCNC(=O)CSc1ncc(CO)n1Cc1ccc(Cl)cc1,1.7,·
COCCNc1nc2c(S(=O)(=O)c3ccc(C)cc3)nnn2c2ccccc12,0.91,0.46
O=C(c1cnc2sc(N3CCOCC3)nn2c1=O)N1CCCC1,-0.84,·
Cc1ccc(C)c(N2CCN(c3nc4ccccc4n4cnnc34)CC2)c1,-1.2,-2.2
COc1ccccc1NC(c1ccccc1)c1nnc(-c2ccccc2Cl)o1 (stereo not drawn),2.3,-1.3
COc1ccc2cccc(OC)c2n1,1.5,-0.22
CC(=O)N1c2ccc(S(=O)(=O)NC(C(=O)Nc3cc(C)cc(C)c3)C(C)C)cc2CC1C (stereo not drawn),0.93,·
CSc1ccc(NC(=O)N2c3ccc(F)cc3CCC2C)cc1 (stereo not drawn),1.7,-2.2
COC(=O)c1c(C)nc(C)c(C(=O)OC)c1-c1ccsc1,·,-1.9
COc1ccc(NC(=O)C2=Cc3cc(Br)ccc3OC=C2)cc1,1.1,-0.36
O=C(NC(=O)c1csnn1)Nc1ccc(F)c(Cl)c1,·,-0.21
O=C(CCC(=O)N1CCSc2ccccc21)NCCC1=CCCCC1,0.75,·
C=CCSc1nnc(NC(=O)c2cc(-c3ccc4c(c3)OCCO4)on2)s1,-0.03,-1.2
O=C1Nc2ccccc2SC1C(C(=O)O)c1ccccc1 (stereo not drawn),·,-1.7
CN(C)c1ccc(C2NC(=O)c3c(sc4c3CC(C)(C)OC4)N2)cc1 (stereo not drawn),-4.6,-2.7
COc1cc2c(cc1OC)C1=C(C#N)CCC(=O)N1CC2,·,-2.1
Cc1cc(OCc2nc(-c3ccncc3)no2)ccc1Br,0.65,-1.3
CC(=O)Nc1nc2ccccc2n1Cc1ccccc1Cl,·,-2.1
Nc1c(-c2nc(-c3ccccc3)no2)nnn1-c1ccccc1Cl,-0.35,-0.26
COc1ccc(-c2noc(CN(C)S(=O)(=O)c3ccc(F)cc3)n2)cc1,2.6,-0.72
Cc1cc(NCc2ccccc2)n2nc(-c3ccccc3C)nc2n1,0.85,-0.17
CCN1CCN(c2cc(C)nc3nc(-c4ccccc4C)nn23)CC1,0.94,-0.69
O=S(=O)(c1cccc(Cl)c1)c1nnn2c1nc(NCc1cccs1)c1sccc12,-0.59,·
Cc1ccc(Cn2c(=O)c(C#N)cc3c(=O)n4cccc(C)c4nc32)cc1,-1.8,-1.6
Cc1ccc(C)c(NC(=O)Nc2nnc(N3CCCC3)s2)c1,-0.25,-1.5
C=CCOC(=O)C1C(c2ccc(C)cc2)c2c([nH][nH]c2=O)CC1(C)O (stereo not drawn),0.6,-0.02
O=C(Nc1cc(-c2cccs2)nn1-c1ccc(F)cc1)C1CCC1,·,-0.74
CC(C)CNC(=O)C1CCCN(c2nnc(N3CCCC3=O)s2)C1 (stereo not drawn),-0.15,·
CCCCCCOc1ccc(C2C3=C(CC(C)(C)CC3=O)Nc3[nH]c(=O)[nH]c(=O)c32)cc1OC (stereo not drawn),0.64,0.9
Cc1cc(Nc2ccc(N3CCC(C)CC3)cc2)n2nc(-c3ccco3)nc2n1,1.7,-0.55
CCCSCCCNC(=O)C1CCN(c2nn3c(=O)cc(C)nc3s2)CC1,2.2,-1.3
O=S(=O)(c1ccc2nc(NCCc3ccccc3)cnc2c1)N1CCCCC1,-1.8,-0.5
Cc1cc2c(cc1S(=O)(=O)NC1CCCC(C)C1C)OCC(=O)N2 (stereo not drawn),1,·
O=C(c1ccc(N2C(=O)CCS2(=O)=O)cc1Cl)N1CCN(Cc2ccc3c(c2)OCO3)CC1,1.1,-0.37
Cc1ccc(S(=O)(=O)c2nnn(-c3cc(F)ccc3F)c2C)cc1,2.2,-1.7
CCOc1ccc2c(=O)c(-c3ccc4c(c3)OCCO4)c(C)oc2c1C,·,-0.71
COCCCN1C(=O)C(=O)/C(=C(/O)c2ccc(C)cc2)C1c1ccc(C(C)C)cc1 (stereo not drawn),-0.72,0.16
O=C(COc1ccccc1)N1CCC(c2nc3ccccc3o2)CC1,1.3,-0.3
CC(=O)N1N=C(c2cc(C3CC3)nc3ccccc23)OC1c1ccccc1Cl (stereo not drawn),2.2,·
CCOC(=O)c1cc(S(=O)(=O)Nc2ccc(N(C)C)cc2)[nH]n1,0.34,·
CCc1cc(Nc2ccc(C)cc2)n2ncnc2n1,0.38,-0.4
Cc1cc(N2CCN(c3ccc(F)cc3)CC2)nc(-n2cc([N+](=O)[O-])cn2)n1,0.92,·
COc1cc(/C=C2\C(=O)NN(c3ccc(Cl)c(Cl)c3)C2=O)cc(I)c1O,·,-3.3
Cc1c(Cl)cccc1Nc1nc2ccccc2n2c(C)nnc12,-2.5,-1.4
COc1cccc(NC(=O)NC2(C(F)(F)F)Oc3ccc(Cl)cc3O2)c1 (stereo not drawn),·,0.46
CC1CCN(c2nn3c(=O)c(C(=O)NCCCN4CCCC4)cnc3s2)CC1,-0.37,·
COc1ccc(Cc2nnc(SCCC(=O)O)o2)cc1,-1.1,-1.1
CC1=C(C(=O)OCC2CCCO2)C(c2ccc(C)cc2)C2=C(CC(C)(C)CC2=O)N1 (stereo not drawn),1.1,-0.15
N#CC1=C(N)NC(=S)C(C(N)=O)C1c1ccccc1 (stereo not drawn),0.03,-4.7
CCS(=O)(=O)N1CCCC(C(=O)NCCCOC)C1 (stereo not drawn),1.5,·
Cc1onc(-c2c(Cl)cccc2Cl)c1C(=O)NCc1ccccn1,·,-2.5

# Another view of part of the listing above.
structure	TAR Tat displ	CDC25B CDK2 inh
O=S(=O)(c1ccc2nc(NCCc3ccccc3)cnc2c1)N1CCCCC1	-1.8	-0.5
Cc1cc2c(cc1S(=O)(=O)NC1CCCC(C)C1C)OCC(=O)N2 (stereo not drawn)	1	·
O=C(c1ccc(N2C(=O)CCS2(=O)=O)cc1Cl)N1CCN(Cc2ccc3c(c2)OCO3)CC1	1.1	-0.37
Cc1ccc(S(=O)(=O)c2nnn(-c3cc(F)ccc3F)c2C)cc1	2.2	-1.7
CCOc1ccc2c(=O)c(-c3ccc4c(c3)OCCO4)c(C)oc2c1C	·	-0.71
COCCCN1C(=O)C(=O)/C(=C(/O)c2ccc(C)cc2)C1c1ccc(C(C)C)cc1 (stereo not drawn)	-0.72	0.16
O=C(COc1ccccc1)N1CCC(c2nc3ccccc3o2)CC1	1.3	-0.3
CC(=O)N1N=C(c2cc(C3CC3)nc3ccccc23)OC1c1ccccc1Cl (stereo not drawn)	2.2	·
CCOC(=O)c1cc(S(=O)(=O)Nc2ccc(N(C)C)cc2)[nH]n1	0.34	·
CCc1cc(Nc2ccc(C)cc2)n2ncnc2n1	0.38	-0.4
Cc1cc(N2CCN(c3ccc(F)cc3)CC2)nc(-n2cc([N+](=O)[O-])cn2)n1	0.92	·
COc1cc(/C=C2\C(=O)NN(c3ccc(Cl)c(Cl)c3)C2=O)cc(I)c1O	·	-3.3
Cc1c(Cl)cccc1Nc1nc2ccccc2n2c(C)nnc12	-2.5	-1.4
COc1cccc(NC(=O)NC2(C(F)(F)F)Oc3ccc(Cl)cc3O2)c1 (stereo not drawn)	·	0.46
CC1CCN(c2nn3c(=O)c(C(=O)NCCCN4CCCC4)cnc3s2)CC1	-0.37	·
COc1ccc(Cc2nnc(SCCC(=O)O)o2)cc1	-1.1	-1.1

# Next section
SMILES,TAR Tat displ,CDC25B CDK2 inh
CC1(C)Cc2c(c(N3CCOCC3)nc3sc(C(=O)Nc4ccccc4Cl)c(N)c23)CS1,0.09,0.96
Cc1nc(C(F)(F)F)ccc1C(=O)Oc1ccccc1N1CCCCC1,·,-0.23
Cc1cc(C)c(S(=O)(=O)Nc2ccc(N3CCCS3(=O)=O)cc2)cc1C,0.79,·
Cc1ccc(Cn2c(C(=O)NCc3ccc4c(c3)OCO4)cc3sccc32)cc1,·,-5.8
CCCC12CN3CC(C)(CN(C1)C31CCCC1)C2=O,·,-1.9
Cc1cc(C)n(Cc2c(C(=O)NCC3CCCO3)noc2C)n1 (stereo not drawn),-0.78,·
O=C(Nc1ccc(Br)cc1)C1CCCN1S(=O)(=O)c1cccc2nsnc12 (stereo not drawn),2.1,0.91
O=c1cc(CSc2nc3ncccc3o2)nc2ccc(Cl)cn12,1.6,·
O=C1C(=O)N(Cc2cccnc2)C(c2ccc(Cl)cc2)/C1=C(\O)c1ccc(F)cc1 (stereo not drawn),-0.17,0.08
COCCCNC(=O)N1CCN(S(=O)(=O)c2ccc3c(ccn3C)c2)CC1,-0.21,·
O=C(Nc1ccc(-c2nc3ccccc3o2)cc1)C1COc2ccccc2O1 (stereo not drawn),-6.8,-0.6
C=CCN1C(=O)C(O)(CC(=O)c2ccc3c(c2)CCCC3)c2ccccc21 (stereo not drawn),0.45,0.27
Cc1ccccc1NC(=O)c1ccc2ncsc2c1,·,-2.1
Fc1ccccc1N1CCN(c2ncnc3c2cnn3-c2ccc(Cl)cc2)CC1,3.4,·
O=C(NCc1ccccn1)C1=Cc2cc(Br)ccc2OC1,0.85,·
CCCCC(=O)n1c(=O)oc2ccccc21,-0.48,·
CCOC(=O)c1sc(N2C(=O)C(=O)/C(=C(/O)c3ccccc3)C2c2ccc(O)cc2)nc1C (stereo not drawn),0.19,-1.1
CC(C)c1ccc(-n2cc[nH]c(=S)c2=O)cc1,-0.28,-0.84
CCOc1ccc(-c2[nH]nc3nc(C(C)C)cc(C(=O)O)c23)cc1,1.1,0.51
Fc1cccc2c1CNC(=S)N2,·,-1.3
O=C1c2ccccc2-c2n[nH]c3cccc1c23,1.7,0.82&-0.26
CCOC(=O)c1cc2nc(-c3ccco3)cc(C(F)(F)F)n2n1,0.63,-1.2
CCOC(=O)c1cccc(NC(=O)CCN2C(=O)c3cccc([N+](=O)[O-])c3C2=O)c1,·,-0.44
Oc1ccccc1-c1nc(/C=C/c2ccccc2Cl)no1,2.2,-0.09
COc1ccc(-c2csc3nc(-c4ccc(C)cc4)oc(=O)c23)cc1,0.38,-1.1
CCOC(=O)c1c(NC(=O)c2ccn(CC)n2)sc2c1CCCC2,-0.54,-2
COc1cc(OC)c(NC(=O)N2CCn3cccc3C2C)cc1Cl (stereo not drawn),-5.5,·
CCn1cc(CCC(=O)NC2CCCC2)c2ccccc21,1.9,·
CCOC(=O)c1sc(NC(=O)c2noc3c2CCCCC3)c(C(=O)OCC)c1C,·,0.26
O=C(CC1CCCCCCCCCCC1)N1CCOCC1,1.3,-0.84
O=C(NCCCSC1CCCCC1)C1CCCN(c2nc3ccccc3[nH]2)C1 (stereo not drawn),0.5,-2.1
CCCCc1ccc(Nc2cc(C)nc(C)n2)cc1,-0.27,0.19
CC(C)(C)c1ccc(-c2nc(NCc3ccco3)c3ccccc3n2)cc1,-0.23,-0.26
CCOC(=O)c1c(-c2ccccc2)oc2ccc(OC(C)=O)cc12,0.21,-2
CC(=O)Nc1cc(=O)[nH]c(-c2ccccn2)n1,·,-2.5
Fc1cccc(CN2CCC(N3CCCCCC3)CC2)c1,·,-0.63
